Screening results from PubChem BioAssay.
Vaccinia inh: blocks a specific stage of Vaccinia orthopoxvirus infection. 0.01% of 89,000 active. Vaccinia-infected cells, mCherry/Venus stage reporter fluorescence; stronger effect = lower value; some inactives read as strong as hits. activity change (mCherry), % (no concentration beside the values). AID 1053133;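 active = mCherry past -33% and 40 or more points under the early reporter, replicates agreeing; inconclusive = past -33% without that gap or agreement; tested in A549 cells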;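 note: scaled between vehicle wells and reference inhibitor wells; 23 nL library stock went into each well; one replicate is shown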
Vaccinia inh Venus: further read-out of Vaccinia inh, marked with its call; activity change (Venus), %; measured here: Venus reporter, other viral stage;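 negative = less Venus signal; first of two replicates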
Numbers without * were called inactive; u = inconclusive; x = not tested or not shown; & = joins results of further samples. Some of the compounds tested; count on the stated rates, not on these rows.

SMILES	Vaccinia inh	Vaccinia inh Venus
C[C@H](CO)N1C[C@H](C)[C@H](CN(C)Cc2ccc(-c3ccccc3)cc2)Oc2ccc(NC(=O)CCC(F)(F)F)cc2CC1=O	-33	-32
C[C@H](CO)N1C[C@H](C)[C@H](CN(C)S(=O)(=O)c2cn(C)cn2)Oc2ccc(NS(=O)(=O)c3cccs3)cc2C1=O	9	4
C[C@H]1CN([C@@H](C)CO)C(=O)Cc2cc(NS(=O)(=O)c3ccc(Cl)cc3)ccc2O[C@H]1CN(C)CC1CC1	10	8
C[C@@H]1CCCCO[C@H](CN(C)C(=O)Nc2ccc(C(F)(F)F)cc2)[C@@H](C)CN([C@H](C)CO)C(=O)c2cc(NC(=O)Nc3ccc4c(c3)OCO4)ccc2O1	-5	-4
C[C@H]1CN([C@@H](C)CO)C(=O)Cc2cc(NC(=O)CCN3CCOCC3)ccc2O[C@H]1CN(C)C(=O)Nc1cccc2ccccc12	5	9
C[C@@H]1CN([C@H](C)CO)C(=O)c2cc(NC(=O)Nc3ccccc3)ccc2O[C@@H]1CN(C)Cc1ccncc1	5	2
Cc1noc(C)c1S(=O)(=O)Nc1ccc2c(c1)C(=O)N([C@H](C)CO)C[C@H](C)[C@H](CN(C)C(=O)Nc1ccccc1)O2	10	1
CCCN1C[C@H](C)[C@@H](OC)CN(C)C(=O)c2ccc(NC(=O)C3CCC3)cc2OC[C@@H]1C	2	3
C[C@@H]1CCCCO[C@H](CN(C)C(=O)c2ccccc2)[C@H](C)CN([C@@H](C)CO)C(=O)c2cc(NC(=O)c3ccccc3)ccc2O1	-24	-25
COc1ccc(CNC(=O)C[C@H]2C=C[C@H](NC(=O)c3ccc4c(c3)OCO4)[C@@H](CO)O2)cc1	-5	-7
C[C@H](CO)N1C[C@H](C)[C@H](CN(C)C(=O)C2CCCCC2)Oc2cc(C3=CCCCC3)ccc2S1(=O)=O	u	x
Cc1noc(C)c1NC(=O)Nc1ccc2c(c1)CC(=O)N([C@@H](C)CO)C[C@@H](C)[C@H](CN(C)CC1CCCCC1)O2	-2	-1
COc1ccc2c3c([nH]c2c1)[C@@H](CO)N(C(=O)CN(C)C)CC31CCN(CC2CC2)CC1	-3	-10
Cn1cnc(S(=O)(=O)N[C@H]2C=C[C@H](CC(=O)N3CCN(c4ccccc4)CC3)O[C@@H]2CO)c1	6	8
CN1CCN(C(=O)C[C@H]2CC[C@@H]3[C@H](COC[C@@H](O)CN3Cc3cccc(-c4ccncc4)c3)O2)CC1	-7	-9
C[C@H](CO)N1C[C@H](C)[C@@H](CN(C)Cc2ccncc2)Oc2c(NS(=O)(=O)c3ccc(F)cc3)cccc2C1=O	13	4
C[C@@H]1CN([C@@H](C)CO)C(=O)Cc2cc(NC(=O)Nc3cccc4ccccc34)ccc2O[C@H]1CN(C)Cc1ccccc1	-26	-9
C[C@H](CO)N1C[C@H](C)[C@H](CN(C)C(=O)c2cnccn2)Oc2cc(C3=CCCC3)ccc2S1(=O)=O	5	-2
COc1ccc(S(=O)(=O)Nc2ccc3c(c2)[C@@H]2C[C@H](CC(=O)O)O[C@@H](CO)[C@@H]2O3)cc1	6	9
C/C=C/c1ccc([C@@H]2[C@@H](CO)N3CCCCN(S(=O)(=O)c4ccc(OC)cc4)C[C@H]23)cc1	u	x

An excerpt from above in order of heavy-atom count, falling:
SMILES	Vaccinia inh	Vaccinia inh Venus
C[C@@H]1CCCCO[C@H](CN(C)C(=O)Nc2ccc(C(F)(F)F)cc2)[C@@H](C)CN([C@H](C)CO)C(=O)c2cc(NC(=O)Nc3ccc4c(c3)OCO4)ccc2O1	-5	-4
C[C@H]1CN([C@@H](C)CO)C(=O)Cc2cc(NC(=O)CCN3CCOCC3)ccc2O[C@H]1CN(C)C(=O)Nc1cccc2ccccc12	5	9
C[C@@H]1CCCCO[C@H](CN(C)C(=O)c2ccccc2)[C@H](C)CN([C@@H](C)CO)C(=O)c2cc(NC(=O)c3ccccc3)ccc2O1	-24	-25
Cc1noc(C)c1S(=O)(=O)Nc1ccc2c(c1)C(=O)N([C@H](C)CO)C[C@H](C)[C@H](CN(C)C(=O)Nc1ccccc1)O2	10	1
C[C@H]1CN([C@@H](C)CO)C(=O)Cc2cc(NS(=O)(=O)c3ccc(Cl)cc3)ccc2O[C@H]1CN(C)CC1CC1	10	8
COc1ccc2c3c([nH]c2c1)[C@@H](CO)N(C(=O)CN(C)C)CC31CCN(CC2CC2)CC1	-3	-10
COc1ccc(S(=O)(=O)Nc2ccc3c(c2)[C@@H]2C[C@H](CC(=O)O)O[C@@H](CO)[C@@H]2O3)cc1	6	9

Continued:
SMILES	Vaccinia inh	Vaccinia inh Venus
O=C(C[C@H]1C[C@@H]2c3cc(NS(=O)(=O)c4ccc(F)cc4)ccc3O[C@@H]2[C@@H](CO)O1)NCc1cccnc1	7	2
COc1ccc2c3c([nH]c2c1)[C@@H](CO)N(C(=O)NC(C)C)CC31CN(C(=O)C2CCCCC2)C1	2	-6
C[C@@H]1CCCCO[C@H](CN(C)C(=O)C2CCCCC2)[C@H](C)CN([C@H](C)CO)C(=O)c2cc(NC(=O)Nc3cccc4ccccc34)ccc2O1	-2	-2
O=C(c1cccc(F)c1)N1CC[C@@H]2[C@@H](CO)Nc3ccc(C#Cc4cccc(F)c4)cc3[C@@H]21	-6	-7
COc1ccc(NC(=O)Nc2ccc3c(c2)C(=O)N([C@H](C)CO)C[C@H](C)[C@H](CN(C)C(=O)Nc2ccc(C(F)(F)F)cc2)OCCCC[C@@H](C)O3)cc1	10	13
C[C@@H]1CN([C@@H](C)CO)C(=O)Cc2cc(NS(=O)(=O)c3ccc(F)cc3)ccc2O[C@@H]1CN(C)C(=O)Nc1ccc(C(F)(F)F)cc1	-20	-10
CCCC(=O)Nc1ccc2c(c1)C(=O)N(C)[C@@H]1CC[C@@H](CC(=O)NCc3ccccc3Cl)O[C@H]1CO2	-7	1
C[C@@H]1CN([C@H](C)CO)C(=O)c2cc(NC(=O)NC3CCCCC3)ccc2O[C@H]1CN(C)Cc1ccc2c(c1)OCO2	-23	-17
CCCNC(=O)N1CC(=O)N2[C@H](CO)[C@@H](c3ccc(-c4cccc(C)c4)cc3)[C@@H]2C1	-2	-28
C[C@H]1CN([C@@H](C)CO)C(=O)c2cc(NC(=O)Nc3ccc(F)cc3)ccc2O[C@H]1CN(C)Cc1ccncc1	2	-6
C[C@H]1CN([C@@H](C)CO)C(=O)c2cc(/C=C/c3ccccc3)cnc2O[C@@H]1CN(C)C(=O)C1CCC1	-15	-17
N#C[C@@H]1[C@@H](c2ccccc2C2=CCCCC2)[C@H](CO)N1S(=O)(=O)c1ccccc1	16	12
COc1ccccc1C#Cc1cnc2c(c1)C(=O)N([C@H](C)CO)C[C@@H](C)[C@H](CN(C)C(C)=O)O2	10	2
Cc1noc(C)c1NC(=O)NCC[C@@H]1CC[C@@H](NC(=O)c2ccncc2)[C@H](CO)O1	-11	1
COc1ccc2c3c(n(C)c2c1)[C@H](CO)N(CC1CC1)CC31CN(C(=O)NC2CCCC2)C1	-3	-5
C[C@@H](NC(=O)C[C@@H]1CC[C@H](NC(=O)Cc2ccccn2)[C@@H](CO)O1)c1ccccc1	6	2
C[C@@H]1CN([C@@H](C)CO)C(=O)c2cc(NC(=O)CCCN(C)C)ccc2O[C@@H](C)CCCCO[C@@H]1CN(C)S(=O)(=O)c1cn(C)cn1	20	5
CCCNC(=O)N1[C@H](C#N)[C@H](c2ccc(-c3ccccc3F)cc2)[C@H]1CO	u	x
CNC[C@H]1Oc2ccc(NS(=O)(=O)c3ccccc3)cc2C(=O)N([C@@H](C)CO)C[C@@H]1C	22	12
Cc1ccccc1-c1ccc2c(c1)O[C@@H](CN(C)C(=O)Nc1ccccc1)[C@H](C)CN([C@H](C)CO)S2(=O)=O	u	x

Record cards, from the list above. Values in the order: Vaccinia inh, Vaccinia inh Venus
COc1ccc2c3c([nH]c2c1)[C@@H](CO)N(C(=O)NC(C)C)CC31CN(C(=O)C2CCCCC2)C1 across the screens: 2, -6
O=C(C[C@H]1C[C@@H]2c3cc(NS(=O)(=O)c4ccc(F)cc4)ccc3O[C@@H]2[C@@H](CO)O1)NCc1cccnc1 across the screens: 7, 2
COc1ccccc1C#Cc1cnc2c(c1)C(=O)N([C@H](C)CO)C[C@@H](C)[C@H](CN(C)C(C)=O)O2 across the screens: 10, 2
C[C@@H](NC(=O)C[C@@H]1CC[C@H](NC(=O)Cc2ccccn2)[C@@H](CO)O1)c1ccccc1 across the screens: 6, 2

Other records:
SMILES	Vaccinia inh	Vaccinia inh Venus
C/C=C/c1ccc2c(c1)O[C@@H](CN(C)C(=O)CC)[C@H](C)CN([C@H](C)CO)S2(=O)=O	10	19
CO[C@@H]1CN(C)C(=O)c2cc(NC(C)=O)ccc2OC[C@H](C)N(C(=O)c2ccc(F)cc2)C[C@@H]1C	8	10
C[C@H]1CN([C@@H](C)CO)C(=O)c2cccc(NC(=O)NC3CCCCC3)c2O[C@H]1CN(C)C(=O)Nc1ccc2c(c1)OCO2	-14	-5
CO[C@@H](C(=O)N(C)C[C@@H]1OCc2ccccc2-c2c(n(C)c3ccccc23)C(=O)N([C@H](C)CO)C[C@@H]1C)c1ccccc1	0	-3
CCCNC(=O)Nc1ccc2c(c1)OC[C@@H](C)N(Cc1ccccn1)C[C@@H](C)[C@H](OC)CN(C)C2=O	7	5
CN(C)C(=O)C[C@@H]1C=C[C@H](NC(=O)NC2CCCC2)[C@H](CO)O1	2	-2
COc1ccc(S(=O)(=O)N(C)C[C@H]2OCCCC[C@@H](C)Oc3ccc(NC(=O)Nc4ccc5c(c4)OCO5)cc3C(=O)N([C@H](C)CO)C[C@@H]2C)cc1	29	15
CCN(C[C@H]1N[C@@H](CO)[C@@H]1c1ccc(-c2cccc(F)c2)cc1)C(=O)COC	-12	2
COc1ccccc1S(=O)(=O)N1[C@@H]2CNC[C@H]1C2c1ccc(-c2cccnc2)cc1 (stereo partly drawn)	-10&-8	-6&-6
C[C@H](CO)N1C[C@H](C)[C@@H](CN(C)C(=O)C2CC2)Oc2cc(/C=C/c3ccccc3)ccc2S1(=O)=O	-32	-27
COC(=O)[C@H]1N[C@H]2c3ccc(C4=CCCC4)c(=O)n3C[C@H]2[C@@H]1CO	18	13
O=C1CNC[C@@H]2[C@@H](c3ccc(C4=CCCCC4)cc3)[C@H](CO)N12	-17	-13
O=C1CN(Cc2ccccc2)C[C@@H]2[C@H](c3ccc(Br)cc3)[C@H](CO)N12	18	9
COc1ccc(C#Cc2cnc3c(c2)C(=O)N([C@H](C)CO)C[C@@H](C)[C@H](CN(C)C(=O)CC2CC2)O3)cc1	-20	-19
CCCC#Cc1ccc2c(c1)O[C@@H](CN(C)C(=O)c1ccncc1)[C@@H](C)CN([C@@H](C)CO)S2(=O)=O	5	9
Cc1ccc(S(=O)(=O)Nc2ccc3c(c2)C(=O)N([C@@H](C)CO)C[C@H](C)[C@H](CN(C)Cc2ccc(C(=O)Nc4ccccc4N)cc2)O3)cc1	-22	-12
C[C@@H]1CN([C@H](C)CO)C(=O)CCCn2cc(nn2)CO[C@H]1CN(C)Cc1cccc(C(F)(F)F)c1	7	4
C[C@@H]1CN([C@H](C)CO)S(=O)(=O)c2ccc(C#CC3(O)CCCC3)cc2O[C@H]1CN(C)C(=O)c1cccnc1	9	10
C[C@@H]1CN([C@H](C)CO)C(=O)Cc2cc(NC(=O)Cn3cnnn3)ccc2O[C@@H]1CN(C)Cc1ccc(C(=O)Nc2ccccc2N)cc1	-4	0
N#C[C@@H]1[C@@H](c2ccccc2)[C@H](CO)N1C(=O)c1ccc2c(c1)OCO2	3	4
C[C@@H]1CCCCO[C@H](CN(C)S(=O)(=O)c2cn(C)cn2)[C@@H](C)CN([C@@H](C)CO)C(=O)c2cc(NC(=O)Nc3ccc4c(c3)OCO4)ccc2O1	14	11
C/C=C/c1ccc([C@@H]2[C@H](CO)N(CC3CCCC3)C23CN(C(=O)CC)C3)cc1	-29	-19
O=C(c1cccnc1)N1CC2(C1)[C@@H](c1ccccc1)[C@H](CO)N2C(=O)C1CCC1	-1	-5
COc1ccc(CN(C)C[C@@H]2Oc3ccc(NS(=O)(=O)c4ccc(C)cc4)cc3CC(=O)N([C@@H](C)CO)C[C@@H]2C)cc1	-17	-9
COc1ccc(S(=O)(=O)Nc2ccc3c(c2)C(=O)N([C@@H](C)CO)C[C@@H](C)[C@H](CN(C)S(=O)(=O)c2ccc(Cl)cc2)OCCCC[C@H](C)O3)cc1	-28	-21
CCC(=O)N1[C@@H]2Cn3c(cccc3=O)[C@H]1[C@@H](C(=O)NC1CCCC1)[C@@H]2CO	14	8
O=C(NCCN1CCCCC1)[C@@H]1[C@@H](CO)[C@@H]2Cn3c(cccc3=O)[C@@H]2N1C(=O)C1CC1	27	16
CC(C)CC#Cc1cnc2c(c1)C(=O)N([C@H](C)CO)C[C@@H](C)[C@H](CN(C)S(=O)(=O)c1cccs1)O2	-3	6
C[C@@H](NC(=O)C[C@H]1C[C@H]2c3cc(NC(=O)NC4CCCC4)ccc3O[C@H]2[C@H](CO)O1)c1ccccc1	12	11
O=C(C[C@@H]1C[C@H]2c3cc(NC(=O)Nc4ccccc4)ccc3O[C@H]2[C@@H](CO)O1)NCCN1CCCCC1	-4	3
C[C@@H]1CN([C@@H](C)CO)C(=O)Cc2cc(NS(C)(=O)=O)ccc2O[C@@H]1CN(C)CC1CCCCC1	3	5
CC(C)CC#Cc1ccc2c(c1)O[C@@H](CN(C)Cc1ccccn1)[C@@H](C)CN([C@H](C)CO)S2(=O)=O	u	x
C[C@H](CO)N1C[C@H](C)[C@H](CN(C)S(=O)(=O)c2ccccc2)OCCCC[C@H](C)Oc2ccc(NC(=O)Nc3ccc4c(c3)OCO4)cc2C1=O	-6	4
Cc1ccccc1S(=O)(=O)N(C)C[C@H]1OCc2ccccc2-c2ccccc2C(=O)N([C@H](C)CO)C[C@@H]1C	-27	-25
CCN(C[C@@H]1[C@@H](c2ccccc2)[C@H](CO)N1C(=O)COC)S(C)(=O)=O	9	27
C[C@@H]1CN([C@H](C)CO)C(=O)c2cc(NC(=O)c3ccncc3)ccc2O[C@H]1CN(C)Cc1ccc(C(=O)O)cc1	15	4
C[C@H]1CN([C@@H](C)CO)C(=O)c2cccc(NC(=O)c3ccc(-c4nccs4)cc3)c2O[C@@H]1CN(C)CC1CCCCC1	u	x
